Sfp PPTase inh: inhibitors of Bacillus subtilis Sfp phosphopantetheinyl transferase; Potency, µM, without a hit: max response, negative = inhibition, usual class: inhibitors; hit rate 3.5% among 310,000; Q9F4F7; Biochemical Sfp PPTase activity, qHTS; AID 1490; active = well fitted inhibition curve with a large enough effect; inconclusive = small, poorly fitted or top-dose-only effect, or another doubt; inactive = no such curve, though single readings can be large or run the other way;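 note: the enzyme is Sfp with the accession as filed and its product quenches rhodamine fluorescence; potency is the fitted concentration of half-maximal effect; 0% = enzyme reaction without inhibitor and -100% = no enzyme wells; top concentration of the series not given in the record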
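Compounds were incubated with enzyme (final 15 nM) for 15 min at room temperature before substrate addition started the reaction. Fluorescence at 525 nm excitation, 598 nm emission was recorded immediately and after 30 minutes.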
D2 agonist: activates the human D2 dopamine receptor; activation, % (no concentration beside the values); P14416; DiscoveRx PathHunter D2 beta-arrestin, luminescence, 90 min; 100% = 57 uM dopamine signal; hit rate 0.084% among 360,000; in the data active = activation above about 40%; inconclusive = about 15% to 40%; inactive = below about 15%; note: compound concentration not given in the record; the text of the record calls up to 30% inactive
Target sequence (P14416 whole entry, looked up): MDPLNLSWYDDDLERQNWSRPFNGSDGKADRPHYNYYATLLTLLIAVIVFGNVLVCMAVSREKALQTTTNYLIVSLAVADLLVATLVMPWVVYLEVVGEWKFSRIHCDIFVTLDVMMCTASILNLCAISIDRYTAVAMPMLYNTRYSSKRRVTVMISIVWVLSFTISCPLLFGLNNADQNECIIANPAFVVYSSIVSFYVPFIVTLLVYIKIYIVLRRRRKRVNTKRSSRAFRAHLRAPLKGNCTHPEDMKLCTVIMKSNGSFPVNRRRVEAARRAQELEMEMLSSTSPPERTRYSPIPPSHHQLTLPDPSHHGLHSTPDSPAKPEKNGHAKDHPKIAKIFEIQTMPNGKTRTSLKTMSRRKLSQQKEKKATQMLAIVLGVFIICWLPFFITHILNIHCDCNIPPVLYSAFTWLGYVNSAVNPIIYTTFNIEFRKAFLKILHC
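Agonist mode: compounds alone added to overnight-plated D2 PathHunter cells for 90 min at 37 C, with 57 uM final dopamine (EC100) defining full response. Beta-arrestin recruitment detected by chemiluminescent reagent, read after 1 h at ambient temperature.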
TRPV1 PAM: potentiators of human vanilloid receptor 1 (TRPV1); Q8NER1; TRPV1-expressing cells, Fluo-8 calcium influx, capsaicin EC20 potentiation; host cell line not named in the record; control for the full effect not named in the record; potentiation, % at 8.33 µM; hit rate 0.02% among 320,000; AID 540277; active means potentiation above 80%; inconclusive means 30% to 80%; inactive means below 30%; note: 0% is about no effect
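TRPV1-expressing cells were cultured overnight at 35.5C and loaded with Fluo-8 calcium dye for 40 to 90 min at room temperature. After a 10 s baseline, compound was added and calcium influx was read kinetically for 3 min (ex 480/em 520 nm).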
PINK1 modulator: PINK1 expression modulation; PINK1 immunofluorescence, high-content cytometry, 24 h; AID 624263; hit rate 0.2% among 410,000; Potency, µM (top dose mostly 76.6 µM), inactives show top-dose activation (PINK1 increase), hits mostly activators; active = well fitted activation curve with a large enough effect; inconclusive = small, poorly fitted or top-dose-only effect; inactive = flat fitted curve, though single readings scatter; cell line not stated here;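 note: potency is the fitted concentration of half-maximal effect; % of control where 0% means no effect; nearly all actives have a fitted effect of over 65% in size; a mitochondrial uncoupler was the plate control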
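Stable cell line treated 24 h with compounds at 5 concentrations (CCCP controls), then fixed and immunostained for PINK1 plus nuclear and cell stains; PINK1 immunofluorescence quantified by laser-scanning microplate cytometry.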
CtBP-E1A inh: CtBP/E1A binding inhibition; AlphaScreen GST-E1A/His-CtBP binding, 1536-well; hits give low values; control for the full effect not named in the record; hit rate 0.49% among 340,000; activity change, % (test concentration not listed); in the data active means activity change below about -65%; inconclusive means about -30% to -65%; inactive means above about -30%; note: % is set by controls: 0 for no effect and ±100 for the full control effect; compound concentration not given in the record
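Homogeneous bead-based format: GST-tagged E1A captured on glutathione donor beads, His-tagged CtBP on nickel acceptor beads; compounds precede bead addition by 2 h at 37 °C.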
Six1-Eya2 blk: blocks human Six1 binding to Eya2; Q15475+O00167; hit rate 0.56% among 360,000; AlphaScreen GST-Six1/His-Eya2 binding, biochemical; hits give low values; control for the full effect not named in the record; activity change, % (no concentration beside the values); in the data active = activity change below about -65%; inconclusive = about -30% to -65%; inactive = above about -30%; note: % is set by controls: 0 for no effect and ±100 for the full control effect; compound concentration not given in the record
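Homogeneous AlphaScreen proximity assay pairing GST-Six1 with His-tagged Eya2 (added as 5X mix: 250 nM and 500 nM) in 50 mM Tris pH 8.0, 300 mM NaCl, 1 mM TCEP. Glutathione donor and nickel acceptor beads; 1 h, 37 °C, dark.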
D2 PAM: human D2 receptor positive allosteric modulation; hit rate 0.23% among 360,000; AID 624464; DiscoveRx D2 beta-arrestin cells, luminescence, 90 min; 100% = 57 uM dopamine signal; P14416; potentiation, % (concentration not given with the values); active = potentiation of 50% or more; inconclusive = 30% to 50%; inactive = 30% or less;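 note: compound concentration not given in the record; tested on top of an EC20 dose of dopamine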
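D2 cells co-treated with compound plus 50 nM dopamine (EC20) for 90 min at 37 deg C to detect potentiation. Beta-arrestin recruitment was read as enzyme-fragment luminescence after 1 h at ambient temperature. Full response was set by 57 uM dopamine.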
An asterisk follows results filed as active; ? = inconclusive; . = no result given; [ ] = remark or other dose.

SMILES	Sfp PPTase inh	D2 agonist	TRPV1 PAM	PINK1 modulator	CtBP-E1A inh	Six1-Eya2 blk	D2 PAM
COc1ccc(C)cc1NC(=O)C1CCN(C(=O)c2ccco2)CC1	22%	-1.8	-1	3.5%	-12	-5	-10
CCOc1nc(NCCO)nc(Nc2cc(Cl)ccc2OC)n1	11%	-3.6	-6	-2.0%	3	3	-6
O=C(CC(=O)Nc1cccnc1)Nc1cccnc1	16%	-4.9	-17	0.7%	-7	-9	-2
O=C(c1ccc(NS(=O)(=O)c2ccc3[nH]c(=O)[nH]c3c2)cc1)N1CCCCC1	.	-3.4	-1	-1.9%	-3	1	-24
CC(C)CNC(=O)COC(=O)CCC(=O)c1ccc(F)cc1	1%	-0.6	-11	-1.8%	9	0	-2
O=C(Nc1ccc(S(=O)(=O)Nc2cnc3ccccc3n2)cc1)c1ccc(Br)o1	17%	-2.0	11	6.6%[38.3 µM]	-11	-5	-3
N#Cc1c(Nc2ccccc2)s[nH]c1=O	20µM*	-6.1	26	2.5%	0	-5	-11
CC1=C(C(=O)N2CCCCCC2)CC(CC(=O)NCCc2ccccn2)C(=O)N1Cc1ccc(F)cc1 (centres undefined)	.	.	.	-1.1%	5	-1	.
COc1cc(C2NC(=S)NC3=C2CCc2ccccc23)cc(OC)c1OC (centres undefined)	22%	-2.0	-2	2.7%	-4	-12	-7
O=C(CSc1nnc(CNC(=O)c2c(F)cccc2F)o1)NCCc1ccccc1	24%	-2.5	1	-0.7%	-15	3	2
Fc1ccc(Oc2cnc3ccccc3n2)cc1	-9%	-2.9	27	-0.7%	22	10	-3
Cc1ccccc1CN1[C@@H](C(C)C)COCCS1(=O)=O	.	-0.6	.	1.7%	35	18	0
Cc1cc(C)c(C)c(S(=O)(=O)N(C)C2CCN(C)CC2)c1C	10%	1.7	17	0.3%	1	0	-21
Nc1c(C(=O)c2cccs2)oc2ccccc12	-8%	-1.9	4	-0.6%[38.3 µM]	6	1	-6
CCNC(=S)N1CCN(S(=O)(=O)c2ccc(C)cc2)CC1	19%	-2.5	-4	1.1%	0	-12	-2
Cc1cc(OCC(=O)NCCc2cccc(F)c2)c2c(C)cc(=O)oc2c1	12%	2.7	7	1.6%	-4	3	0
COc1cc(C(=O)NCCc2ccc(F)cc2)c([N+](=O)[O-])cc1OC	7%	-3.5	-5	1.5%	-3	8	-13
CC1CN(C(=O)c2ccc(S(=O)(=O)Nc3ccccc3Cl)cc2)CC(C)O1 (centres undefined)	16%	-0.2	-6	1.5%	1	-2	14
CSc1ccc(CNC(=O)C2(C)CCCN(C(C)=O)C2)cc1 (centres undefined)	.	-2.1	.	0.0%	8	2	5
CCOc1ccc(-c2c(C(=O)N/N=C/c3ccc(Cl)cc3)nnn2-c2nonc2N)cc1	14%	6.2	5	6.8%	.	6	0
CC(=O)Nc1ccc(NS(=O)(=O)c2ccc(-c3cnc(C4CC4)o3)cc2)cc1	4%	-0.2	6	1.0%	4	1	-1
Cc1ccccc1C1CC(c2cccs2)Nc2nnnn21 (centres undefined)	7%	1.4	1	1.8%	2	5	7
Cc1ccc(Nc2cnn(C34CC5CC(CC(CC(=O)O)(C5)C3)C4)c(=O)c2Cl)c(Cl)c1	11%	3.2	1	0.2%	7	2	0
CCc1ccc(OCC(=O)NNC(=O)c2nn(CC)c(=O)c3ccccc23)cc1	13%	0.4	6	2.0%	-5	-9	-23
O=C(N[C@@H](Cc1ccc(O)cc1)C(=O)O)c1ccc(C(F)(F)F)cc1	16%	1.7	-13	0.5%	.	1	-1
COc1cc(C(=O)N2CCN(C(=O)C3COc4ccccc4O3)CC2)cc(OC)c1OC (centres undefined)	12%	1.1	?	-1.7%	-3	4	-3
CC(C)(C)c1csc(NC(=O)c2ccc(Cl)s2)n1	-12%	-4.6	?	?	9	7	-15
CCOc1ccc(-n2cnnn2)cc1S(=O)(=O)N1CCC(C)CC1C (centres undefined)	10%	4.1	-4	?	-2	-9	2
Cc1cccc(N=C2NC(=O)/C(=C/c3cccs3)S2)c1	1%	-5.9	7	0.6%	-14	-15	-8
COc1ccc(S(=O)(=O)N(C)C)cc1NCC(=O)Nc1ccc(Br)c(C)c1	8%	-4.3	3	0.0%	-5	-2	-18

In a second layout: 4 of the compounds above
Compound,Sfp PPTase inh,D2 agonist,TRPV1 PAM,PINK1 modulator,CtBP-E1A inh,Six1-Eya2 blk,D2 PAM
Cc1ccc(Nc2cnn(C34CC5CC(CC(CC(=O)O)(C5)C3)C4)c(=O)c2Cl)c(Cl)c1,11%,3.2,1,0.2%,7,2,0
CCc1ccc(OCC(=O)NNC(=O)c2nn(CC)c(=O)c3ccccc23)cc1,13%,0.4,6,2.0%,-5,-9,-23
O=C(N[C@@H](Cc1ccc(O)cc1)C(=O)O)c1ccc(C(F)(F)F)cc1,16%,1.7,-13,0.5%,.,1,-1
COc1cc(C(=O)N2CCN(C(=O)C3COc4ccccc4O3)CC2)cc(OC)c1OC (centres undefined),12%,1.1,?,-1.7%,-3,4,-3

Additional structures:
SMILES	Sfp PPTase inh	D2 agonist	TRPV1 PAM	PINK1 modulator	CtBP-E1A inh	Six1-Eya2 blk	D2 PAM
COC(=O)c1c(NC(=O)C(=O)NCCCN2CCOCC2)sc2c1CCC2	5%	-1.8	-1	1.1%	-11	-7	0
Cc1cc(Cl)ccc1OC(C)C(=O)Nc1ccccc1N1CCOCC1 (centres undefined)	-5%	0.6	-11	3.3%	17	-7	7
CCn1c(=O)c2cc(C(=O)Nc3ccc(OC)cc3OC)sc2c2ccccc21	0%	-2.6	-2	4.4%	0	-2	0
CCOC(=O)C1=CCN(S(=O)(=O)c2ccccc2F)C1c1ccc(Cl)cc1 (centres undefined)	.	-3.6	.	0.8%	6	1	-1
COc1nc(=O)n(C2C=CC(=O)O2)cc1F (centres undefined)	.	-8.3	.	1.0%	-17	-6	-22
CC1CN(C2CCN(S(=O)(=O)Cc3ccccc3)CC2)CC(C)O1 (centres undefined)	-8%	0.3	2	-0.2%	3	-1	4
NC(=O)C1CC(=O)N(c2ccc(OCc3ccc(Cl)c(Cl)c3)cc2)C1 (centres undefined)	.	2.4	.	5.3%	1	-1	-3
O=C(O)c1ccccc1-c1ccccc1C(=O)Nc1nccs1	10%	3.6	-2	-1.4%	9	-1	2
CCC(C)(C)n1nnnc1C(c1ccccc1OC)N1CCN(C(=O)c2ccco2)CC1 (centres undefined)	11%	-4.2	19	-0.3%	-3	-16	-5
O=C(COc1cccnc1[N+](=O)[O-])Nc1cc(S(=O)(=O)N2CCCCC2)ccc1Cl	1%	-1.8	5	4.7%	0	19	9
O=C(Nc1cccc(NC(=O)c2cccc(Cl)c2)c1)c1cccnc1	28%	1.2	5	1.1%	0	-12	2
COc1cc(CNc2ncnc3c2ncn3[C@H]2CN(Cc3ccc(C(=O)O)cc3)C[C@@H](CO)O2)cc(OC)c1OC	.	4.9	.	-0.5%	-1	-2	4
O=C1NCCn2ccc(=O)cc21	3%	-3.8	0	1.1%	.	7	-12
O=C1NN(c2ccccc2)C(=O)/C1=C/c1ccc(Sc2cccc3ccccc23)o1	?	-2.9	13	-1.1%	0	?	-4
CC(=O)Nc1ccc2c(c1)nc(CCNC(=O)c1ccco1)n2C	9%	-3.6	2	-0.5%	4	-8	-9
Cc1ccc(/C=N/NC(=O)c2cc(C)oc2C)cc1	6%	-1.0	-31	6.5%	0	10	-2
Cc1cccc(NS(=O)(=O)c2cc3c(cc2C)NC(=O)CO3)c1	3%	2.2	8	-0.7%	-12	2	6
COc1ccc(C(=O)OCC(=O)NCCN2C(=O)CSC2=O)cc1	18%	-0.6	3	-1.5%	-1	4	0
Cc1ccc(OCCCN(C)C)c(Br)c1	1%	-2.0	8	2.9%	7	-2	-18
COc1ccc(/C=N/Nc2nc(Nc3ccccc3)nc(N3CCCCC3)n2)c(OC)c1	11%	-3.7	-6	-0.3%	-13	-14	-3
Cc1cc(C)c(C(N)=O)c(NC(=O)Nc2ccccc2)n1	-1%	-5.7	13	?	4	-1	-15
CCN(C(=O)CSc1nc(N)cc(=O)[nH]1)C1CCS(=O)(=O)C1 (centres undefined)	.	-4.7	17	0.3%	-3	0	0
COc1ccc(F)cc1S(=O)(=O)n1cc(C)nc1-c1ccccc1	7%	-0.4	-2	1.3%	1	-8	-4
COc1ccc(CC/C(C)=N\NC(N)=O)cc1	9%	-3.7	5	1.5%	7	1	-14
COc1ccc(C(=O)OCC(O)COC(=O)c2ccc(OC)cc2)cc1	.	0.1	.	1.3%	4	-8	-2
NC(=O)CSc1nnc(-c2ccoc2)o1	8%	-4.3	1	0.7%	4	-2	-12
CCc1noc(C)c1C(=O)Nc1ccc(C)c(S(=O)(=O)N2CCCCCC2)c1	.	-1.2	7	1.3%	2	0	-4
CCn1c(=O)c2ccccc2n2c(SCC(N)=O)nnc12	11%	-1.9	6	2.4%	-9	-8	0
NC(=O)/C(N=Nc1ccccc1)=N/Nc1ccccc1	.	1.4	-32	-0.3%	3	5	17
CCOC(=O)C1(C)CCCCCN1C(=O)c1ccc(OC)c(C(F)(F)F)c1 (centres undefined)	.	-2.3	.	2.7%	1	1	-3
COc1cc(C)c(Cl)cc1S(=O)(=O)n1ccnc1	-11%	3.9	7	?	1	10	4
COC(=O)Cn1c(=NC(=O)CSCC(=O)Nc2cc(C)on2)sc2cc(C(=O)OC)ccc21	-1%	-7.0	7	1.0%	-2	2	-5
C#Cc1ccc([C@@H]2C=C(C(=O)NC3CC3)O[C@H](OCc3ccc(CO)cc3)C2)cc1	.	1.1	.	0.7%	3	-2	2
COc1ccc(CC(N)c2csc(Nc3ncccn3)n2)cc1 (centres undefined)	.	-6.5	.	-0.8%	-80*	-71*	-16
C=CCOc1ccc(C2/C(=C(/O)c3ccc4c(c3)CC(C)O4)C(=O)C(=O)N2CCCN2CCOCC2)cc1 (centres undefined)	-3%	-0.5	-7	2.6%	4	0	-5
S=c1sc2c(N3CCN(Cc4ccccc4)CC3)ncnc2n1-c1ccccc1	10%	-4.6	6	5.4%	-6	-10	1
CCOc1cnc(-c2ccc(OC)cc2)o1	14%	-1.3	-5	1.2%	1	-6	-7
COc1ccc2[nH]cc(/C=C/C(=O)c3ccccc3)c2c1	-12%	-4.1	3	-3.1%	-8	1	-10
N#Cc1ccc(-c2cccnc2)nc1SCc1ccc(Cl)c(Cl)c1	-26%	-4.5	-13	2.7%	8	4	-3
CC(C)c1cc(Br)ccc1OCCCN1C(=O)NC(C)(C)C1=O	-4%	1.0	-11	-1.2%	-6	3	-13

Screens: PubChem BioAssay, National Center for Advancing Translational Sciences (NCATS)
